Screens deposited in PubChem BioAssay by Broad Institute.
AF4-AF9 inh = inhibitors of human MLL-AF4/AF9 interaction; P42568; AlphaScreen, biotin-AF4 peptide binding to FLAG-AF9; inhibition, % at 10 µM; 350,000 compounds, 0.47% hits;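 active = every replicate reaching a set inhibition limit, whatever the replicate mean, cut at about 25% in these data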;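 also: 0% = plate neutral control median and 100% = total signal loss; the record names both 10 and 1 µM as test concentration; the first replicate is given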
Target sequence (P42568 whole entry, looked up): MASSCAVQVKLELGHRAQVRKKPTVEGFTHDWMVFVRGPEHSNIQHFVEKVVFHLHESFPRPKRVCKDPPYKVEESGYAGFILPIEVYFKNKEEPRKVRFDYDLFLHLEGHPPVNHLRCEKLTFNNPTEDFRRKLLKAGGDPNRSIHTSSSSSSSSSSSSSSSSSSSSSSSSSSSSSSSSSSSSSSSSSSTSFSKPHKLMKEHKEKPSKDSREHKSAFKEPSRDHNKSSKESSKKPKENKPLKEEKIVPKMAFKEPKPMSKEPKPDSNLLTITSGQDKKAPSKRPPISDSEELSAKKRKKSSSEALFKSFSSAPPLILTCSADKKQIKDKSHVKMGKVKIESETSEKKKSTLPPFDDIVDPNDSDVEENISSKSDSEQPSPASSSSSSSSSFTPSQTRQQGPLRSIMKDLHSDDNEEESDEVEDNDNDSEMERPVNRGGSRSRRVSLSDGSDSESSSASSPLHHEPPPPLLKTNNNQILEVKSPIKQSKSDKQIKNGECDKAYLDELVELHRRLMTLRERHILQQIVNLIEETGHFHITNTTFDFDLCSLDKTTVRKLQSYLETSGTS
Active calls of the source: *. Only part of the results is shown. The share of hits here may be higher or lower than overall.

AF4-AF9 inh,Structure
-1.5,CN(C)C(=O)[C@@H]1[C@@H](CO)[C@@H]2Cn3c(ccc(C4=CCCC4)c3=O)[C@@H]2N1C(=O)Cc1cccnc1
-0.8,COc1ccc(NC(=O)N2CC[C@@H]3[C@H]2c2cc(Br)ccc2N(C)[C@H]3CO)cc1
0.1,C[C@@H]1CCCCO[C@H](CN(C)S(=O)(=O)c2ccc(Cl)cc2)[C@@H](C)CN([C@H](C)CO)C(=O)c2cc(NC(=O)Cc3ccccc3)ccc2O1
-7.2,C[C@H](CO)N1C[C@H](C)[C@H](CN(C)CC2CCCCC2)Oc2c(NC(=O)c3ccc(-c4nccs4)cc3)cccc2C1=O
-0.3,Cc1ccc(-c2cnc3c(c2)C(=O)N([C@H](C)CO)C[C@H](C)[C@@H](CN(C)CC2CCOCC2)O3)cc1
-4.2,CNC[C@H]1Oc2c(NC(=O)c3cnccn3)cccc2C(=O)N([C@H](C)CO)C[C@H]1C
0.8,COc1ccc(S(=O)(=O)Nc2ccc3c(c2)CC(=O)N([C@H](C)CO)C[C@H](C)[C@@H](CN(C)Cc2ccc(C(F)(F)F)cc2)O3)cc1
1.3,CCCCn1nnnc1C(c1ccccc1)N1CCN(C/C=C/c2ccccc2)CC1 (stereo not given)
2.2,COC(=O)C[C@@H]1CC[C@@H]2[C@@H](COc3ccc(NC(=O)Nc4ccccc4C)cc3C(=O)N2C)O1
1.8,O=C(Cc1ccccc1)N[C@H]1C=C[C@@H](CC(=O)N2CCOCC2)O[C@@H]1CO
0.4,O=S(=O)(c1ccccc1)N1C[C@@H]2[C@H](c3ccccc31)[C@H](CO)N2Cc1ccccn1
2.0,C[C@H](CO)N1C[C@H](C)[C@@H](CN(C)C(=O)Nc2cccc3ccccc23)Oc2c(NS(=O)(=O)c3ccc(F)cc3)cccc2C1=O
-2.8,C[C@@H]1CN([C@@H](C)CO)C(=O)Cc2cc(NC(=O)Cc3cn(C)c4ccccc34)ccc2O[C@@H]1CN(C)C(=O)Nc1ccc(C(F)(F)F)cc1
6.7,CCc1nc2c(OCCn3cccc3)cccn2c1N(C)C(=O)c1ccccc1F
-1.3,CNC[C@H]1OCCCC[C@H](C)Oc2ccc(NS(C)(=O)=O)cc2C(=O)N([C@H](C)CO)C[C@H]1C

Look-ups from above:
Value of C[C@@H]1CCCCO[C@H](CN(C)S(=O)(=O)c2ccc(Cl)cc2)[C@@H](C)CN([C@H](C)CO)C(=O)c2cc(NC(=O)Cc3ccccc3)ccc2O1 in AF4-AF9 inh: 0.1
Value of CN(C)C(=O)[C@@H]1[C@@H](CO)[C@@H]2Cn3c(ccc(C4=CCCC4)c3=O)[C@@H]2N1C(=O)Cc1cccnc1 in AF4-AF9 inh: -1.5

Later entries
AF4-AF9 inh,Structure
-0.1,C=CCOC(=O)C(=O)/C=C/c1ccc(OC)cc1
-2.0,CN(C)C(=O)C[C@H]1C=C[C@H](NC(=O)c2ccc(F)cc2)[C@H](CO)O1
4.8,CCc1cnc(N2[C@H](CO)[C@@H](c3ccc(C#CC(C)C)cc3)[C@@H]2C#N)s1
2.7,COc1ccc(S(=O)(=O)N(C)C[C@@H]2OCCCC[C@@H](C)Oc3ccc(NC(=O)Nc4c(C)noc4C)cc3C(=O)N([C@H](C)CO)C[C@H]2C)cc1
2.2,CC(=NNC(=S)N(Cc1ccccn1)Cc1ccccn1)c1cnccn1
-3.9,C[C@H]1CN([C@@H](C)CO)C(=O)c2cccc(NC(=O)c3ccncc3)c2O[C@H]1CN(C)S(C)(=O)=O
0.5,Cc1ccc(S(=O)(=O)Nc2ccc3c(c2)C(=O)N([C@H](C)CO)C[C@@H](C)[C@@H](CN(C)S(=O)(=O)c2c(C)noc2C)OCCCC[C@H](C)O3)cc1
-4.3,CC1=C(C(=O)N2CCCCCC2)CC(CC(=O)NCC2CCCCC2)C(=O)N1Cc1ccc(F)cc1 (stereo not given)
-7.3,C[C@@H]1CCCCO[C@H](CN(C)Cc2ccc(C(=O)O)cc2)[C@H](C)CN([C@H](C)CO)C(=O)c2cc(NC(=O)Nc3ccccc3)ccc2O1
-0.9,C[C@@H]1CCCCO[C@H](CN(C)C(=O)NC2CCCCC2)[C@@H](C)CN([C@H](C)CO)C(=O)c2cc(NC(=O)CCCN(C)C)ccc2O1
-3.6,C[C@@H]1CN([C@@H](C)CO)C(=O)c2cc(C#CCN(C)C)cnc2O[C@@H]1CN(C)S(=O)(=O)c1cn(C)cn1
-6.2,CCCN1[C@@H]2Cn3c(cccc3=O)[C@H]1[C@@H](C(=O)Nc1ccccc1)[C@@H]2CO
-0.8,COCC#Cc1cnc2c(c1)C(=O)N([C@H](C)CO)C[C@@H](C)[C@H](CN(C)C(=O)C1CC1)O2
-1.1,C[C@H](CO)N1C[C@H](C)[C@H](CN(C)C(=O)Nc2ccc(F)cc2)Oc2ccc(NC(=O)c3ccncc3)cc2C1=O
-1.8,CCN(CC)C(=O)c1ncn2c1C(=O)N(C)CC2

Further entries:
AF4-AF9 inh,Structure
16,CNC[C@H]1Oc2cc(C#Cc3ccccc3OC)ccc2S(=O)(=O)N([C@@H](C)CO)C[C@@H]1C
-0.7,COc1ccc(S(=O)(=O)N2CCC[C@H]2C(=O)N2CCC[C@H]2C(=O)NCc2ccncc2)cc1C
0.8,C[C@@H]1CN([C@H](C)CO)C(=O)CCCn2nncc2CO[C@@H]1CN(C)Cc1cccc(C(F)(F)F)c1
-3.0,O=C(NCc1ccccc1)[C@]1(CCS(=O)(=O)c2ccccc2)N=C(c2ccc(OCCCO)cc2)O[C@@H]1c1ccccc1
5.2,CO[C@H]1CN(C)C(=O)c2cc(C#N)ccc2OC[C@@H]2O[C@@H](CC[C@H]2OC)CCN(C)C(=O)[C@@H]1C
-3.4,CC(C)C(=O)Nc1ccc2c(c1)C(=O)N(C)[C@@H]1CC[C@@H](CC(=O)NCC3CC3)O[C@H]1CO2
4.2,CO[C@H]1CN(C)C(=O)c2cc(NC(C)=O)ccc2OC[C@H](C)N(Cc2ccccc2F)C[C@H]1C
6.2,COc1ccc(S(=O)(=O)Nc2ccc3c(c2)CC(=O)N([C@@H](C)CO)C[C@H](C)[C@@H](CN(C)Cc2ccncc2)O3)cc1
-1.4,NC(c1csc(NC(=O)c2cccc(OC(F)(F)F)c2)n1)c1ccccc1Cl (stereo not given)
5.1,C[C@H]1CN([C@@H](C)CO)C(=O)c2cc(-c3cccc(F)c3)cnc2O[C@@H]1CN(C)S(=O)(=O)c1cccc(F)c1
1.2,Cc1ccccc1-c1ccc2c(c1)O[C@H](CN(C)C(=O)c1ccccn1)[C@H](C)CN([C@@H](C)CO)S2(=O)=O
1.6,CNc1cncc(-c2cccc(C(=O)N3CCOCC3)c2)n1
-2.7,O=C(C[C@@H]1CC[C@@H]2NC[C@H](O)COC[C@H]2O1)NCCc1ccccc1
-3.3,Cc1ccccc1-c1cnc2c(c1)C(=O)N([C@H](C)CO)C[C@@H](C)[C@H](CN(C)C(=O)CC1CC1)O2
2.8,O=C(C[C@@H]1C[C@@H]2c3cc(NC(=O)Nc4ccc(F)cc4)ccc3O[C@@H]2[C@@H](CO)O1)NC1CCCC1

The list continues:
AF4-AF9 inh,Structure
0.7,CCC(=O)N1[C@H](C(=O)Nc2ccccc2)[C@@H](CO)[C@@H]2Cn3c(ccc(-c4ccncc4)c3=O)[C@@H]21
-1.2,O=C(C[C@H]1C[C@@H]2c3cc(NC(=O)CC4CC4)ccc3O[C@@H]2[C@H](CO)O1)NCc1cccc(F)c1
-2.7,CCCN(C)C[C@H]1Oc2ncc(-c3cccnc3)cc2C(=O)N([C@@H](C)CO)C[C@H]1C
4.6,Nc1[nH]c(C(=O)c2ccccc2)c(-c2ccc3c(c2)OCO3)c1C(=O)NCCc1c[nH]c2ccccc12
-3.9,C/C=C/c1cnc2c(c1)C(=O)N([C@H](C)CO)C[C@H](C)[C@H](CN(C)C(=O)Nc1ccc(F)cc1)O2
-1.4,C[C@H]1[C@@H](c2ccccc2)Oc2ccc(Cl)cc2S(=O)(=O)N1Cc1ccc(Cl)cc1
-0.5,CCc1csc(N2[C@H](CO)[C@@H](c3ccc(C4=CCCC4)cc3)[C@@H]2C#N)n1
-2.6,Cc1ccc(-c2ccc([C@@H]3[C@@H](CO)N4C(=O)CN(C(=O)Cc5ccccn5)C[C@H]34)cc2)cc1
4.5,C[C@@H](O)C#Cc1ccc([C@H]2[C@H]3CN(CC4CC4)CCCCN3[C@H]2CO)cc1
1.5,COc1ccccc1CC1(C)C(=O)Nc2c(Cl)cccc21 (stereo not given)
0.3,C[C@@H]1CN([C@H](C)CO)C(=O)c2cc(NC(=O)Cc3cn(C)c4ccccc34)ccc2O[C@@H]1CN(C)Cc1ccc(C(F)(F)F)cc1
7.8,C[C@H](CO)N1C[C@H](C)[C@@H](CN(C)C(=O)Nc2ccc(F)cc2)Oc2c(NC(=O)Nc3cccc4ccccc34)cccc2C1=O
-1.5,COc1ccc(S(=O)(=O)Nc2ccc3c(c2)CC(=O)N([C@@H](C)CO)C[C@H](C)[C@H](CN(C)S(=O)(=O)c2ccc(C)cc2)O3)cc1
0.6,Cc1cccc(C)c1NC(=O)c1csc(COCCO)n1
5.8,CC(C)CC#Cc1ccc2c(c1)O[C@@H](CN(C)C(=O)c1cccc(F)c1)[C@H](C)CN([C@H](C)CO)S2(=O)=O

A draw from above in order of formula weight, low to high.
AF4-AF9 inh,Structure
1.6,CNc1cncc(-c2cccc(C(=O)N3CCOCC3)c2)n1
-2.0,CN(C)C(=O)C[C@H]1C=C[C@H](NC(=O)c2ccc(F)cc2)[C@H](CO)O1
-6.2,CCCN1[C@@H]2Cn3c(cccc3=O)[C@H]1[C@@H](C(=O)Nc1ccccc1)[C@@H]2CO
1.3,CCCCn1nnnc1C(c1ccccc1)N1CCN(C/C=C/c2ccccc2)CC1 (stereo not given)
-3.4,CC(C)C(=O)Nc1ccc2c(c1)C(=O)N(C)[C@@H]1CC[C@@H](CC(=O)NCC3CC3)O[C@H]1CO2
6.2,COc1ccc(S(=O)(=O)Nc2ccc3c(c2)CC(=O)N([C@@H](C)CO)C[C@H](C)[C@@H](CN(C)Cc2ccncc2)O3)cc1

(list continues)
AF4-AF9 inh,Structure
-0.4,C[C@@H]1CN([C@H](C)CO)C(=O)CCCn2cc(nn2)CO[C@@H]1CN(C)S(=O)(=O)c1ccccc1F
1.8,C[C@H]1CN([C@@H](C)CO)C(=O)Cc2cc(NC(=O)Nc3ccc(F)cc3)ccc2O[C@H]1CN(C)S(C)(=O)=O
-2.6,CNC[C@@H]1Oc2cc(C#Cc3ccncc3)ccc2S(=O)(=O)N([C@H](C)CO)C[C@@H]1C
-1.6,C[C@H]1CN([C@@H](C)CO)C(=O)c2cccc(NS(=O)(=O)c3cccs3)c2O[C@@H]1CN(C)C(=O)NC1CCCCC1
-2.2,COc1ccc(S(=O)(=O)Nc2cccc3c2O[C@H](CN(C)S(=O)(=O)c2cn(C)cn2)[C@H](C)CN([C@H](C)CO)C3=O)cc1
1.8,CC(=O)Nc1cccc(-c2cc3c(c4c2ccn4C)C2CCC3O2)c1 (stereo not given)
0.6,N#C[C@H]1[C@H](c2ccccc2C2=CCCCC2)[C@@H](CO)N1C(=O)CN1CCOCC1
6.9,COc1cccc(C(=O)Nc2ccc3c(c2)C(=O)N(C)C[C@H](OC)[C@H](C)CN(CCc2ccccc2)[C@H](C)CO3)c1
0.3,C[C@H]1CN([C@@H](C)CO)C(=O)c2cc(N(C)C)ccc2O[C@H]1CN(C)C(=O)NC1CCCCC1
-0.5,O=C(C[C@H]1CC[C@H](NC(=O)C2CCOCC2)[C@@H](CO)O1)Nc1ccc(-c2ccccc2)cc1
0.6,C[C@@H]1CN([C@@H](C)CO)C(=O)c2cc(NC(=O)NC3CCCCC3)ccc2O[C@H]1CN(C)Cc1ccc(Cl)c(Cl)c1
-2.5,C[C@@H]1CN([C@H](C)CO)C(=O)c2cccc(NC(=O)CCCCCC(=O)Nc3ccccc3N)c2O[C@@H]1CN(C)Cc1ccc(Oc2ccccc2)cc1
-0.6,O=C(C[C@@H]1C[C@@H]2c3cc(NC(=O)c4cccnc4)ccc3O[C@@H]2[C@@H](CO)O1)NCc1ccccn1
-0.3,C[C@H](CO)N1C[C@H](C)[C@H](CN(C)C(=O)C2CCC2)Oc2ncc(C#Cc3ccccc3F)cc2C1=O
-3.4,C[C@H](CO)N1C[C@H](C)[C@H](CN(C)C(=O)c2ccccn2)Oc2cc(C3=CCCC3)ccc2S1(=O)=O

The list continues.
AF4-AF9 inh,Structure
-4.0,CO[C@H]1CN(C)C(=O)c2cc(NS(=O)(=O)c3cccc(F)c3)ccc2OC[C@H](C)NC[C@@H]1C
2.0,O=C(C[C@@H]1CC[C@@H]2[C@H](COC[C@H](O)CN2S(=O)(=O)c2ccc(F)cc2)O1)N[C@@H]1CCN(Cc2ccccc2)C1
-1.3,Cc1ccc(S(=O)(=O)Nc2ccc3c(c2)C(=O)N([C@H](C)CO)C[C@H](C)[C@H](CN(C)C(=O)Nc2ccc(F)cc2)OCCCC[C@@H](C)O3)cc1
-2.0,N#C[C@@H]1[C@H](c2ccc(-c3ccccc3F)cc2)[C@H](CO)N1C(=O)C1CC1
-3.0,CO[C@@H]1CN(C)C(=O)c2cc(NS(=O)(=O)c3ccccc3F)ccc2OC[C@@H](C)NC[C@H]1C
-1.1,C/C=C/c1ccc2c(c1)O[C@H](CN(C)C(=O)CN1CCOCC1)[C@H](C)CN([C@@H](C)CO)S2(=O)=O
-6.6,CCCNC(=O)N1CC(=O)N2[C@@H](CO)[C@H](c3ccc(-c4ccc(F)cc4)cc3)[C@@H]2C1
-2.3,Cc1ccccc1-c1cnc2c(c1)C(=O)N([C@@H](C)CO)C[C@@H](C)[C@H](CN(C)C(=O)c1ccc(F)cc1)O2
-5.5,CC(C)NC(=O)N(C)C[C@H]1Oc2ncc(-c3cccc(C#N)c3)cc2C(=O)N([C@@H](C)CO)C[C@H]1C
-1.1,CN(C)CC(=O)N1CCCCN2[C@H](CO)[C@@H](c3ccc(-c4cccnc4)cc3)[C@@H]2C1
